Screening data as filed in PubChem.
PINK1 expr mod: modulators of PINK1 expression | PINK1 immunofluorescence, high-content cytometry, 24 h | actives 0.2% (n = 410,000) | Potency, µM (highest dose often 76.6 µM), without a hit: top-dose activation (PINK1 increase), hits mostly activators; active = well fitted activation curve with a large enough effect; inconclusive = small, poorly fitted or top-dose-only effect; inactive = flat fitted curve, though single readings scatter; cell line not stated here;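 also: potency is read from the fitted curve at half-maximal effect; % of control where 0% means no effect; nearly all actives have a fitted effect of over 65% in size; a mitochondrial uncoupler was the plate control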
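Stable cell line treated 24 h with compounds at 5 concentrations (CCCP controls), then fixed and immunostained for PINK1 plus nuclear and cell stains; PINK1 immunofluorescence quantified by laser-scanning microplate cytometry.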
D2 PAM: human D2 receptor positive allosteric modulation; DiscoveRx D2 beta-arrestin cells, luminescence, 90 min; 100% = 57 uM dopamine signal; potentiation, % (test concentration not listed); actives 0.23% (n = 360,000); AID 624464; active = potentiation of 50% or more; inconclusive = 30% to 50%; inactive = 30% or less;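 also: compound concentration not given in the record; tested on top of an EC20 dose of dopamine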
Target sequence (P14416 whole entry, looked up): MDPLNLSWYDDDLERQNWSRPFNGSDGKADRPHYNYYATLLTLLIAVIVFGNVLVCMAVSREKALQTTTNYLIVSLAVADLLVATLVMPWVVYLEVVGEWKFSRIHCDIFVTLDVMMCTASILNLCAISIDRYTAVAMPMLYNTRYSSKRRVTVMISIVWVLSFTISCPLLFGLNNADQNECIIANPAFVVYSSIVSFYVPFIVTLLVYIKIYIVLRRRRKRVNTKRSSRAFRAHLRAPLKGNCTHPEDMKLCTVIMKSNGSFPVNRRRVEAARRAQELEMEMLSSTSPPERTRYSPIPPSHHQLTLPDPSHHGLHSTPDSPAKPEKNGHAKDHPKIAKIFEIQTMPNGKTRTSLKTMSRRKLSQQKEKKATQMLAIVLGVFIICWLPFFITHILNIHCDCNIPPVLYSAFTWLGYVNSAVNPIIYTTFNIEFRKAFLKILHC
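PathHunter D2 cells, attached overnight at 37 deg C, received compound in DMSO plus dopamine at EC20 (50 nM final) for 90 min at 37 deg C. Beta-arrestin recruitment was read as luminescence after 1 h with detection reagent at ambient temperature.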
D2 agonist: human D2 receptor agonism in beta-arrestin assay; DiscoveRx PathHunter D2 beta-arrestin, luminescence, 90 min; 100% = 57 uM dopamine signal; activation, % (no concentration beside the values); actives 0.084% (n = 360,000); AID 624465; in the data active = activation above about 40%; inconclusive = about 15% to 40%; inactive = below about 15%; also: compound concentration not given in the record; the text of the record calls up to 30% inactive
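DiscoveRx PathHunter D2 beta-arrestin cells (2,100/well) attached overnight, then compound-stimulated 90 min at 37 C in HBSS/10 mM HEPES/0.1% Tween-20 buffer; beta-galactosidase complementation read by luminescence after 1 h at ambient temperature. Dopamine 57 uM final (EC100) as control.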
Six1-Eya2 blk: inhibitors of human Six1/Eya2 interaction; Q15475+O00167; AlphaScreen GST-Six1/His-Eya2 binding, biochemical; stronger effect = lower value; control for the full effect not named in the record; activity change, % (test concentration not listed); actives 0.56% (n = 360,000); AID 651725; in the data active = activity change below about -65%; inconclusive = about -30% to -65%; inactive = above about -30%; also: % is scaled to controls: 0 for no effect and ±100 for the full control effect; compound concentration not given in the record
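AlphaScreen luminescence read after one hour at 37 °C in darkness. Pin-transferred compounds met GST-Six1 and His-Eya2 protein (5X stock 250 nM/500 nM) plus glutathione donor and Ni-chelate acceptor beads (5X, 50 ug/mL).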
CtBP-E1A inh: inhibitors of CtBP/E1A interaction; activity change, % (no concentration beside the values); actives 0.49% (n = 340,000); AlphaScreen GST-E1A/His-CtBP binding, 1536-well; stronger effect = lower value; control for the full effect not named in the record; AID 651724; in the data active means activity change below about -65%; inconclusive means about -30% to -65%; inactive means above about -30%; also: % is scaled to controls: 0 for no effect and ±100 for the full control effect; compound concentration not given in the record
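Steps: dispense buffer (Tris pH 8.0, NaCl 300 mM, TCEP 1 mM, BSA, Tween 20); add 5X protein mix (GST-E1A, His-CtBP, 125 nM each); pin 23 nL compound; 2 h at 37 °C, dark; add 5X beads (50 ug/mL); 1 h; read.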
TRPML1 agonist: human mucolipin-1 channel agonism; AID 624414; activation, % (no concentration beside the values); actives 0.12% (n = 410,000); TRPML1-expressing cells, Ca2+ dye fluorescence, FDSS; host cell line not named in the record; reference of the full effect not given here; Q9GZU1; in the data active = activation above about 50%; inconclusive = about 30% to 50%; inactive = below about 30%; also: 0% is about no effect; the text of the record puts the active cut at 80%
Target sequence (Q9GZU1 whole entry, looked up): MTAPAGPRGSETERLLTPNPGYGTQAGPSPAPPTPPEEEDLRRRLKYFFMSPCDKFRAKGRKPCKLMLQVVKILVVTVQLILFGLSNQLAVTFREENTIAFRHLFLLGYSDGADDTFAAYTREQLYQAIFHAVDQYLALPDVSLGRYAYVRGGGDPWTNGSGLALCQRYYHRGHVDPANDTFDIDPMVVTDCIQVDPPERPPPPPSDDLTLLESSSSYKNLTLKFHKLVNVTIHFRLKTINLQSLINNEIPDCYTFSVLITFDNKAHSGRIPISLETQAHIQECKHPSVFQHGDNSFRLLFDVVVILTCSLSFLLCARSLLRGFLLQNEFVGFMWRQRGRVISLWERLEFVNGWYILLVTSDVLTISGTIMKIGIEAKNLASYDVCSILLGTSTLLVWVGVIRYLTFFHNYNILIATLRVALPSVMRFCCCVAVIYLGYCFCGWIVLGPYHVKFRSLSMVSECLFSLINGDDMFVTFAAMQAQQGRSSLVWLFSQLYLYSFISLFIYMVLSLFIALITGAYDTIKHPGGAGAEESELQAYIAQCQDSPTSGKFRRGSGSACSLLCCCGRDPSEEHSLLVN
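In this qHTS format, compounds were pin-transferred onto Ca8-dye-loaded TRPML1-DL cells induced with Tet overnight, and intracellular Ca2+ fluorescence was recorded kinetically for 110 s after a 10 s baseline. A subsequent 4uM final 54-4 (EC80) addition followed by a second 110 s read served as the antagonist phase.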
* = called active by the depositor; u = inconclusive; x = not tested or not shown; [ ] = remark or other dose.

SMILES	PINK1 expr mod	D2 PAM	D2 agonist	Six1-Eya2 blk	CtBP-E1A inh	TRPML1 agonist
CC(=O)O[C@H]1C[C@@H]2CC[C@@H]3[C@H](CC[C@@]4(C)[C@H]3C[C@H]([N+]3(C)CCCCC3)[C@@H]4OC(C)=O)[C@@]2(C)C[C@@H]1[N+]1(C)CCCCC1	0.2%	-4	-7.5	4	6	0.0
COc1cc(CNc2ncn[nH]2)ccc1OCc1ccccc1C	-1.4%	1	0.7	-2	0	-0.2
O=c1c2ccccc2c(-c2ccccc2)nn1-c1ccc(Cl)c(Cl)c1	3.6%	1	-2.3	8	9	0.5
CC1(C(=O)NS(=O)(=O)Cc2cccc(Cl)c2)CCN1C(=O)CC1CCCC1 (configuration not stated)	-0.2%	-4	-2.6	2	1	-0.5
CCOC(=O)C1=C(C)C(c2ccccc2OC)NC(=O)N1 (configuration not stated)	0.7%	-6	-1.2	-7	-1	-1.2
COC(=O)c1ccc(OCC(=O)NC2CCCCCC2)cc1	0.2%	-4	3.2	0	4	0.7
COCCn1c(C)c(C)c(S(=O)(=O)c2ccccc2)c1N	-0.5%	-7	2.4	0	4	0.8
COc1ccccc1NC(=O)Cc1csc(N)n1	-2.0%[38.3 µM]	-14	-0.7	0	11	1.7
Cc1ccccc1OCC(=O)NCCS(=O)(=O)N1CCN(c2ccc(F)cc2)CC1	1.1%	15	-1.6	2	-3	0.6
Clc1nc(Nc2ccccc2)nc(Nc2ccccc2)n1	6.5%	3	4.7	-18	-19	0.8
Cc1ccc(NC(=O)c2ccc3c(=O)n4c(nc3c2)CCCCC4)cc1F	5.1%	2	7.0	-8	-3	0.4
CC(=O)N1c2ccc(S(=O)(=O)NCCC(=O)NCCc3ccc(C)cc3)cc2CC1C (configuration not stated)	0.1%	-10	-0.6	5	0	0.2
Cc1ccc(NC(=O)c2ccc(S(=O)(=O)NCc3ccco3)cc2)cc1	4.6%	-2	-1.1	-10	-11	0.3
COc1cccc(CNS(=O)(=O)c2ccc3c(c2)N(C(C)=O)CCO3)c1	0.2%	-20	-3.3	5	4	-0.7
Cc1cc(C)c(O)c(-c2cc(C(=O)Nc3c(C)n(C)n(-c4ccccc4)c3=O)[nH]n2)c1	3.7%	-11	8.4	1	-13	1.3
Cc1cc(C)nc(NC(=O)c2c(-c3ccccc3Cl)noc2C)c1	0.5%	1	-5.1	2	-10	2.2
O=C(Nc1ccncc1)C1CC(=O)N(Cc2ccccc2)C1 (configuration not stated)	0.7%	-2	-4.6	-2	13	0.2
CC(=O)NCc1cn2c(C)csc2n1	-1.4%	-4	-5.7	-1	1	0.3
c1ccc2c(c1)NCC1CCCN21 (configuration not stated)	16%	-7	u	-27	-28	1.2
COc1ccc(OC)c(NC(=S)N2CCN(C(=O)C3CCCO3)CC2)c1 (configuration not stated)	-0.6%	-7	2.7	10	1	0.5
COc1cccc(NC(=O)C2CCN(S(C)(=O)=O)CC2)c1	x	7	0.3	-1	-10	0.6
CCOc1ccc(S(=O)(=O)N2CCCC(C(=O)N3CCOCC3)C2)cc1 (configuration not stated)	-0.2%	-4	-4.4	-1	2	-0.2
COc1cc(C(C)=O)ccc1Oc1cc(NN2CCCCC2)c([N+](=O)[O-])cc1[N+](=O)[O-]	0.1%	-6	-2.1	-18	-17	-0.2
Cc1cccc(NC(=O)CCC(=O)NCCO)c1	-1.5%[38.3 µM]	3	1.5	3	2	-0.2
COC(=O)c1ccc(NC(=O)C2C3CCC(C3)C2C(=O)O)cc1 (configuration not stated)	0.9%	9	-0.9	17	-1	1.5
CC(C)c1ccccc1NS(=O)(=O)N(C)C	1.8%	-7	-2.9	10	7	-0.5
Clc1ccc2nc(C3CCN(Cc4nnnn4C4CCCCC4)CC3)[nH]c2c1	1.5%	-10	-0.5	3	-3	0.7
CCc1ccc(S(=O)(=O)Nc2ccccn2)cc1	-1.8%	-1	-0.6	6	-1	2.0
Cc1cc(NC(=O)CSc2nc(=O)cc(N)n2-c2ccc(Cl)cc2)no1	0.4%	-1	-2.1	2	3	-0.8
COc1ccc(C2CC(=O)Oc3cc(O)ccc32)cc1 (configuration not stated)	0.4%	x	-2.3	-1	3	0.0
Cc1oc(C(=O)O)cc1COc1ccc2c3c(c(=O)oc2c1C)CCC3	x	-20	-0.7	3	-7	0.2
Cc1cc(NC(=O)c2cc(-c3ccc(C)s3)nc3ccccc23)no1	22%	-6	-3.3	-7	-2	-0.6
O=C(CCS(=O)(=O)c1ccc2c(c1)NC(=O)CO2)NCCc1ccc(Cl)cc1	-1.4%	-16	-3.3	0	4	-0.7
COc1cc(C(=O)NCCC(=O)NCCCN2CCCCC2C)cc(OC)c1OC (configuration not stated)	9.3%[38.3 µM]	9	-1.6	-10	7	-0.2
CC1(C)C2CC=C(/C=N/NC(=O)c3ccccc3O)C1C2 (configuration not stated)	u	-10	3.4	-1	6	-0.2
CCOC(=O)C1=C(COC(=O)CCS(=O)(=O)c2ccc(C)cc2)NC(=O)NC1C (configuration not stated)	0.5%	11	-1.1	1	-25	-0.1
O=C(NCC(c1ccco1)N1CCCC1)c1cccc(S(=O)(=O)N2CCOCC2)c1 (configuration not stated)	0.6%	-3	2.5	1	-1	1.9
COc1ccc2c(c1)CC1c3c(cc4c(c3-2)OCO4)CC[N+]1(C)[O-] (configuration not stated)	-1.5%	10	8.0	-12	-5	-0.8
O=C(O)C1Cn2c(nc3c(c2=O)C2(CCCC2)Cc2ccccc2-3)S1 (configuration not stated)	-0.2%	-5	2.9	-5	-6	-0.3
CCc1ccccc1Nc1nc(N)nc(CSc2nnnn2C)n1	0.2%	-3	1.1	-3	0	-0.9
COc1ccc(CCNC(=S)N2CCN(S(=O)(=O)c3ccc(C)cc3)CC2)cc1	15%	-15	-0.9	-15	-12	1.5
CCCN=C(C)C1=C(O)c2ccccc2C1=O	1.9%	-1	4.1	0	3	-0.5
COc1ccc(N(Cc2cc3cc(OC)ccc3[nH]c2=O)C(=O)C2CCCO2)cc1 (configuration not stated)	-0.1%	0	-0.5	4	-2	-0.9
Cc1cccc2c1CC(C)(C)NC2=C(C#N)C#N	-0.8%	-7	-0.5	0	3	-1.6
O=C(CCS(=O)(=O)c1ccccc1)Nc1nc2cc3c(cc2s1)OCO3	-0.1%	-2	-5.8	0	7	1.5
Cc1onc(-c2ccccc2)c1C(=O)N1CCc2ccccc21	x	3	0.0	1	4	0.7
CCc1c(C)nc2c(-c3ccccc3)c(C)nn2c1Nc1ccc(NC(C)=O)cc1	0.3%	-4	1.9	12	9	0.0
Cc1ccc(NCC(=O)N/N=C/c2cccc(Oc3ccccc3)c2)cc1	u	-1	0.7	-21	-28	0.8
O=C(C[C@@H]1C/C=C\C[C@H](Cc2ccc(F)cc2)C(=O)OCCNC1=O)N[C@H](CO)Cc1ccccc1	1.5%	-4	-2.7	13	-14	-0.1
CCOc1c2ccc(C(=O)NCc3ccco3)cc2nn1CC	0.1%	1	1.3	-3	-1	-0.6
Cc1cc(C(=O)NCc2ccc(S(N)(=O)=O)cc2)cs1	-2.6%[38.3 µM]	-8	2.4	3	0	0.5
O=C(Cn1c(=O)n(Cc2ccc3c(c2)OCO3)c(=O)c2ccccc21)N1CCCc2ccccc21	-1.7%	-32	-3.9	-12	-4	0.0
CCOc1ccc(NC(=O)COC(=O)C2COc3ccccc3O2)cc1 (configuration not stated)	-1.0%	-8	-3.0	1	2	-0.6
O=C(COC(=O)CCc1c[nH]c(=O)[nH]1)Nc1ccccc1Cl	-4.0%	-12	-0.9	3	-8	0.4
C/C(=N\NC(=O)c1ccncc1)c1cc2ccccc2o1	0.4%	-10	3.0	-2	-7	-0.1
COc1ccc(OC)c(S(=O)(=O)N2CCN(CC(O)COc3ccccc3)CC2)c1 (configuration not stated)	3.5%	-10	-1.6	-1	1	-0.9
Cc1ccc(C(C)C)c(OCC(=O)NN2C(=O)c3ccccc3C2=O)c1	-1.1%	-29	-2.3	-8	x	1.0
CCOc1ccccc1N=C1SC(CC(=O)Nc2ccc(OC)cc2OC)C(=O)N1CCC1=CCCCC1 (configuration not stated)	-1.8%	-16	1.7	-11	-8	-0.5
C=CCOC(=O)C1=C[C@@H](c2ccc(C(F)(F)F)cc2)[C@H](CCCO)[C@@H](OCC)O1	4.7%	6	4.8	4	13	0.2
Cc1ccc(S(=O)(=O)N2CCOCC2)cc1C(=O)OCC(=O)NC1CCCC1	2.2%	-1	2.8	-4	5	-0.4

Seven compounds already listed, arranged by their value in PINK1 expr mod, rising:
mol,PINK1 expr mod
CCOc1ccccc1N=C1SC(CC(=O)Nc2ccc(OC)cc2OC)C(=O)N1CCC1=CCCCC1 (configuration not stated),-1.8%
Cc1cccc2c1CC(C)(C)NC2=C(C#N)C#N,-0.8%
COCCn1c(C)c(C)c(S(=O)(=O)c2ccccc2)c1N,-0.5%
CC(=O)O[C@H]1C[C@@H]2CC[C@@H]3[C@H](CC[C@@]4(C)[C@H]3C[C@H]([N+]3(C)CCCCC3)[C@@H]4OC(C)=O)[C@@]2(C)C[C@@H]1[N+]1(C)CCCCC1,0.2%
COC(=O)c1ccc(NC(=O)C2C3CCC(C3)C2C(=O)O)cc1 (configuration not stated),0.9%
Clc1nc(Nc2ccccc2)nc(Nc2ccccc2)n1,6.5%
c1ccc2c(c1)NCC1CCCN21 (configuration not stated),16%

(more compounds)
SMILES	PINK1 expr mod	D2 PAM	D2 agonist	Six1-Eya2 blk	CtBP-E1A inh	TRPML1 agonist
COc1ccc(C(C)(C)C)cc1NC(=O)CN(C)C1=NS(=O)(=O)c2ccccc21	0.0%	-36	-0.2	5	3	-0.6
CC(=O)c1c(C)[nH]c(=S)c(C#N)c1-c1ccc(Cl)cc1	0.0%	-6	-0.3	3	3	-0.1
O=S(Cc1ccc(Cl)cc1)c1ncc(CO)n1Cc1ccccc1 (configuration not stated)	-0.6%	-4	-5.3	8	25	-0.3
N#Cc1ccc(C(=O)N2CCN(S(=O)(=O)c3ccc(Cl)s3)CC2)cc1	-0.7%	0	-0.9	0	4	-0.3
Cn1nc(C#N)c(=O)[nH]c1=O	-0.6%	-4	0.3	6	2	0.6
O=C(Nc1c(Cl)cccc1Cl)c1cc(=O)n(Cc2ccccc2)c(=O)[nH]1	10µM*	-2	-1.4	-1	-12	1.1
CCn1cc(SCC(=O)NCc2ccc3c(c2)OCO3)c2ccccc21	-0.5%	-8	-2.9	-9	0	2.7
C/C(=N\NS(=O)(=O)c1cccc([N+](=O)[O-])c1)c1cccnc1	0.2%	-4	-4.3	11	-5	-0.7
Cc1cc(C(=O)C(=O)O)c(C)n1-c1ccc(Cl)cc1	0.2%	-13	-3.9	-12	-6	-0.6
Cc1ccc(NC(N)=S)cc1	-0.4%	-1	-0.9	5	-5	0.0
COc1ccc(-n2nnnc2SCC(=O)c2ccc3c(c2)OCCO3)c(OC)c1	0.7%	-9	-1.6	6	-18	-0.6

Compounds above containing a nitro group on carbon (two):
SMILES	PINK1 expr mod	D2 PAM	D2 agonist	Six1-Eya2 blk	CtBP-E1A inh	TRPML1 agonist
COc1cc(C(C)=O)ccc1Oc1cc(NN2CCCCC2)c([N+](=O)[O-])cc1[N+](=O)[O-]	0.1%	-6	-2.1	-18	-17	-0.2
C/C(=N\NS(=O)(=O)c1cccc([N+](=O)[O-])c1)c1cccnc1	0.2%	-4	-4.3	11	-5	-0.7
